# Bioassay records from PubChem.
# CSC inhib = cancer stem cell viability inhibitors, primary screen, luminescence; hit rate 1.1% among 300,000; inhibition, % at 7.5 µM; cancer stem cell-like cells viability; AID 2717, 2010;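 active = mean at 75% or more and at least half the replicates too; tested in HMLE shEcad cells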;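 note: 0% = median of negative and 100% = median of positive control wells; the first replicate is given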
# Yeast UUG start = modulators of yeast start codon fidelity, primary screen, whole organism, S. cerevisiae, single point, plate reader; activity score, % at 18.7 µM; S. cerevisiae UUG-firefly luciferase reporter, luminescence/redox ratio; hit rate 0.13% among 350,000;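 active = replicate mean at a twofold rise or more, about +100% in these data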;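 note: firefly luciferase made from a UUG start codon reports start codon fidelity; reporter light over untreated wells divided by growth signal over untreated wells; some hits fall short of that in this replicate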
# eIF4H inh = human eIF4H binding inhibitors, primary screen, translation initiation inhibitor project, biochemical, uHTS, fluorescence polarization; Eukaryotic translation initiation factor 4H (Homo sapiens), Q15056; eIF4H fluorescence polarization binding assay; inhibition, % at 35 µM; hit rate 0.94% among 290,000; AID 2012, 2009;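 active = 50% or more with normal probe brightness, or confirmed in later tests; about a fifth of its hits are not listed in these tables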;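 note: calls also rest on retests at 20 µM and on dose response follow-up; 0% = protein and probe with vehicle and 100% = probe without protein; strong numbers were not always called active; many hits fall short of the cut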
# Rce1 inh = yeast Rce1p protease inhibitors, primary screen, biochemical, fluorescence, cell-free homogeneous. CAAX prenyl protease 2 (Saccharomyces cerevisiae (strain ATCC 204508 / S288c)), Q03530. yeast membranes, quenched prenylated peptide cleavage fluorescence. calls only. hit rate 0.27% among 290,000. AID 2563, 2010;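 active = fall in fluorescence gain of 50% or more versus controls, with final raw signal at or below 3038400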;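 note: plate controls were neutral control wells for no effect and wells lacking membranes for full effect; tested at 10 µM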
# Target sequence (Q03530 whole entry, looked up): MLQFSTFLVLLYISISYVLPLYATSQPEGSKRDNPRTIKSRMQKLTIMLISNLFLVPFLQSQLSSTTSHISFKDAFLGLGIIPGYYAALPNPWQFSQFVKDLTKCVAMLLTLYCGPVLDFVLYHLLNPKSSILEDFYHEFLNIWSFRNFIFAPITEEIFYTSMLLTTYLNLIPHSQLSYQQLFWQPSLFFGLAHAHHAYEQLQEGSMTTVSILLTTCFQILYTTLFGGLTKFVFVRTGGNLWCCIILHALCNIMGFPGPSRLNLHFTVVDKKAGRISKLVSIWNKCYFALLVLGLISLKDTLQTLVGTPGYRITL
# PABP polyA inh = PABP poly(A) RNA binding inhibitors, primary screen, biochemical, fluorescence polarization, uHTS | hit rate 1% among 290,000 | AID 2014, 2009 | Polyadenylate-binding protein 1 (Homo sapiens), P11940 | inhibition, % at 35 µM;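 active = 50% or more with normal probe brightness, or confirmed in later tests; about a fifth of its hits are not listed in these tables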;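 note: calls also rest on retests at 20 µM and on dose response follow-up; controls were probe without protein and protein plus probe with vehicle; some compounds called inactive have numbers as strong as hits; many hits fall short of the cut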
# Target sequence (P11940 whole entry, looked up): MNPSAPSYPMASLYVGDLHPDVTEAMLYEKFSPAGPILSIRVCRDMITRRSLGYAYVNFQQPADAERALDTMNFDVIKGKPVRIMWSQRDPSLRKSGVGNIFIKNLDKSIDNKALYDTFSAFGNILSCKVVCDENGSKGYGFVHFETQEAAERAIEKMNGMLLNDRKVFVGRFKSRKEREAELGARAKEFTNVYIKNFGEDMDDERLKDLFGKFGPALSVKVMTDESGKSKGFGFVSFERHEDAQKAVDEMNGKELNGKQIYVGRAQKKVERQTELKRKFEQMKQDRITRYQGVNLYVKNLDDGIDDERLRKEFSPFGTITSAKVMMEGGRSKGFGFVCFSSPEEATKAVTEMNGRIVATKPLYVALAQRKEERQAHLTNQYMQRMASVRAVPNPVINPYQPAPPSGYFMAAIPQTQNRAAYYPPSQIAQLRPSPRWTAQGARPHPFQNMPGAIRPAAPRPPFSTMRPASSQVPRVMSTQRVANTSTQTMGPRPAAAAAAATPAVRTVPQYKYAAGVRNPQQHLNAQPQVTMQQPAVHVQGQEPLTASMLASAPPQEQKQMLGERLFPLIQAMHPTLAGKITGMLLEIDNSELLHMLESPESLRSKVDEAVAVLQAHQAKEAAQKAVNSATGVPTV
# HIV Env fusion = inhibitors of HIV-1 Env-driven cell-cell fusion, primary screen, HeLa-JRFL effector, CEM21 target cells, luciferase; inhibition, % at 12.3 µM; hit rate 1.1% among 360,000;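 active = mean replicate inhibition score of at least 50 and every replicate individually at or above 50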;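 note: 0% = plate neutral controls and 100% = maraviroc near 300 nM; one replicate is shown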
# MT1-MMP act inh = blockers of MT1-MMP proenzyme processing, primary screen, HT1080 RFP-PRO-GFP cells, GFP/RFP fluorescence. GFP/RFP ratio change, % at 20 µM. Matrix metalloproteinase-14 (Homo sapiens), P50281. GFP/RFP ratio fluorescence, overnight; percent of plate control window, DMSO zero. AID 651647, 2012. hit rate 0.061% among 360,000;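 active = GFP/RFP ratio change of at least 30% with cell ATP level not reduced by more than half and red fluorescence within 50% of control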; note: strong numbers were not always called active
#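 Assay system: HT1080 RFP-PRO-GFP cells. Benchmarks: DMSO vehicle wells and RFP-L50D-GFP reporter cell wells. Times: overnight cell settling, then overnight compound exposure, 37 °C, 5% CO2. Compound: 20 µM single dose, 1% DMSO. Read-out basis: GFP/RFP fluorescence ratio.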
# eIF4H inh retest = second read-out of eIF4H inh, no call of its own (marks repeat the call); inhibition, %; compound at 20 µM; confirmation average;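 mean of two retest wells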
# PABP polyA inh retest = also measured in PABP polyA inh; calls as there; inhibition, %; compound at 20 µM; confirmation repeats;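 mean of two retest wells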
# MT1-MMP act inh RFP = second read-out of MT1-MMP act inh, no call of its own (marks repeat the call); RFP signal change, %; measured here: RFP expression control read;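 0 = vehicle wells; hits needed this value within 50% of zero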
# * = called active by the depositor; i = inactive; / = no result given; & = joins results of further samples. These rows are one share of the data (hit frequency here may not be typical).
SMILES,CSC inhib,Yeast UUG start,eIF4H inh,Rce1 inh,PABP polyA inh,HIV Env fusion,MT1-MMP act inh,MT1-MMP act inh RFP,others
C/C(=N\NC(=O)c1cc(Cl)ccc1O)c1ccc(Br)s1,103*,/,15,i,-3,-21,0,-10,
Cc1cc(=O)nc2c3ccccc3n(C(C)C(=O)Nc3c(F)c(F)c(F)c(F)c3F)n12 (configuration not stated),18,-7,8,i,-8,-21,-1,-1,
O=C(O)c1cc(N/N=C/c2cccnc2)ccc1Cl,-9,/,2,i,1,-27,-1,0,
CC(=O)Nc1ccc(S(=O)(=O)Oc2ccccc2N2CCCCC2)cc1,22,/,23,i,-6,18,-37,0,
CCOC(=O)CSc1nc(N2CCOCC2)c2c(c1C#N)CC(C(C)C)OC2 (configuration not stated),71,13,-6,i,-9,5,-7,-7,
COc1nc(NC(=O)c2ccc(F)cc2)nc(OC)c1-c1ccccc1,1,-19,-9,i,5,0,-1,0,
COC(=O)C(COC(=O)c1c(F)cccc1F)NC(=O)c1c(F)cccc1F (configuration not stated),1,-3,-2,i,-2,12,4,3,
CCOC(=O)Cc1c(C)nc2c(-c3ccccc3)c[nH]n2c1=O,1,-19,-16,i,28,/,2,3,
COc1cc(C(C)=O)ccc1OCC(=O)NCC1(N2CCCCC2)CCCCC1,-1,/,-3,i,0,2,0,1,
COCCN1C[C@@H](CO)O[C@@H](n2cnc3c(NCCN(C)C)ncnc32)C1,/,-19,/,/,/,-31,3,8,
CC1CCCN(C(=O)C2CCC(CNc3c(N4CCCCC4)c(=O)c3=O)CC2)C1 (configuration not stated),-7,11,-7,i,9,-1,-1,1,
Nc1nc(CSc2nnnn2-c2ccc(F)c(Cl)c2)nc(N2CCOCC2)n1,-2,-3,/,i,/,/,10,-1,
COc1ccc(/C=C2\Oc3cc(OCC(=O)N4CCC(C(=O)O)CC4)ccc3C2=O)c(OC)c1OC,-4,-1,-9,i,-4,/,-1,2,
Cc1nnc(NC(=O)C(c2ccccc2)c2ccccc2)s1,8,-16,-5,i,1,0,2,5,
C#CCOCCOCCOCCNc1nc(N2CCN(C(=O)CCCCCCCCCCNC(=O)Cn3cc(CCCCCN)nn3)CC2)nc(N2CCN(C(=O)CCCCCCCCCCNC(=O)Cn3cc(C[C@@H](C)O)nn3)CC2)n1,-29,0,/,/,/,/,10,3,
CCOC(=O)c1nn(-c2ccc(C)c(C)c2)c(=O)c(C#N)c1C,-17,2,-2,i,1,-40,0,2,
COc1ccc(-c2cc(C(F)(F)F)nc(N)n2)cc1,-17,-23,-12,i,15,-13,-3,-3,
CCn1c(C(=O)NCCCc2ccccc2)cc2sccc21,-3,5,-9,i,24,/,0,1,
COc1ccc(CNC(=O)Cn2ccc(NC(=O)OCc3ccccc3)nc2=O)cc1,-6,-7,/,/,/,14,0,0,
Cc1cccc(NC(=S)NC(=O)c2ccc(-c3ccccc3)cc2)n1,/,-17,-7,i,-2,-84,-4,2,
Cc1c(Cl)cccc1NC(=O)CNC(=O)c1ccccc1F,-3,-36,2.4*,i,66*,-2,4,8,eIF4H inh retest=68*;PABP polyA inh retest=64*
COc1ccc(NC(=O)CSc2nccn2C)cc1S(N)(=O)=O,-10,/,4,i,-4,-1,3,3,
O=C(NC12CC3CC(CC(C3)C1)C2)c1cc(F)c(F)c(F)c1F,-10,-2,3,i,-4,7,5,-1,
CCC(=NCc1ccccc1)C1=C(O)C(C(=O)OC)C(C)(C)CC1=O (configuration not stated),-12,-32,-5,i,8,/,-3,-3,
COc1cc(F)c(C2=CC(=O)CC(C)(C)C2)cc1F,0,-19,/,/,/,-13,5,3,
Cn1c(C2=C(O)CN(Cc3ccccc3)C2=N)[n+](C)c2ccccc21,1,-3,10,i,3,1,-8,-3,
O=C(Nc1cccc(S(=O)(=O)N2CCCCCC2)c1)C1=COCCO1,-7,5,/,i,/,-7,0,3,
COc1ccc(C2C(C#N)=C(N)Oc3n[nH]c(C)c32)cc1Cn1nnc2ccccc21 (configuration not stated),1,-13,0,i,-3,24,-4,-5,
N/C(=N\OC(=O)c1cccc(Cn2cc(C(F)(F)F)ccc2=O)c1)c1ccccc1,9,-34,-4,i,4,3,-1,-13,
CN(C)S(=O)(=O)c1cccc(NC(=O)COC(=O)[C@H](Cc2ccccc2)NC(=O)c2ccco2)c1,-15,3,/,/,/,4,3,2,
Cc1cccc(C(=O)CC(=O)c2cc(Cl)ccc2O)c1,32,-14,10,i,-2,/,-22,-15,
Cc1ccc2nc(NC(=O)C3CCN(C(=O)c4ccc(F)cc4)CC3)sc2c1,-18,-25,-10,i,0,3,2,-2,
COc1ccc(CCNC(=O)C(=O)NCC2OCCN2C(=O)c2ccc(Cl)cc2)cc1 (configuration not stated),3,-20,12,i,-12,9,-1,-2,
Cc1c(Cl)cccc1NC(=O)[C@@]1(CC(=O)O)CC(/C=C/c2ccccc2)=NO1,-6,8,2,i,-8,-22,1,5,
O=C(CSc1nc2c(sc3ccccc32)c(=O)n1CCc1ccccc1)NCc1ccco1,-1,-16,12,i,-4,-28,3,8,
CC(=O)c1cc2c(cc1N/C(=N/S(=O)(=O)c1ccc(C)cc1)c1ccc(Cl)cc1)OCO2,-2,/,-6,i,1,-20,-3,1,
CSc1ccc(CN2CCC2(C)C(=O)Nc2ccc3c(c2)OCO3)cc1 (configuration not stated),/,15,/,/,/,19,-5,-11,
COc1ccc(C(=O)CCc2ccc(OC)c(OC)c2)cc1,-7,/,/,i,/,-9,0,-10,
CCc1ccc(NC(=O)C2CC=CCC2C(=O)O)cc1 (configuration not stated),-5,0,-2,i,10,-36,-3,-6,
COC(=O)c1sccc1NC(=O)CSc1ccccc1NS(=O)(=O)c1ccc(F)cc1,27,/,-6,i,-11,15,-1,0,

# Reprinted at random: two compounds from above
SMILES,CSC inhib,Yeast UUG start,eIF4H inh,Rce1 inh,PABP polyA inh,HIV Env fusion,MT1-MMP act inh,MT1-MMP act inh RFP,others
CCC(=NCc1ccccc1)C1=C(O)C(C(=O)OC)C(C)(C)CC1=O (configuration not stated),-12,-32,-5,i,8,/,-3,-3,
Cc1c(Cl)cccc1NC(=O)[C@@]1(CC(=O)O)CC(/C=C/c2ccccc2)=NO1,-6,8,2,i,-8,-22,1,5,

# More records
SMILES,CSC inhib,Yeast UUG start,eIF4H inh,Rce1 inh,PABP polyA inh,HIV Env fusion,MT1-MMP act inh,MT1-MMP act inh RFP,others
CSc1nnc(C)c(=O)n1COC(=O)/C=C/c1ccc2c(c1)OCO2,-11,-9,2,i,10,1,-1,-10,
O=C(COC(=O)Cc1n[nH]c(=O)c2ccccc12)Nc1c(Cl)cccc1C(F)(F)F,11,11,/,i,/,-9,1,4,
COc1ccc(C(=O)N2CCCC(c3ccccc3)C2)cc1 (configuration not stated),-3,30,-5,/,5,/,-2,-2,
CSc1ccc(CNc2ccccn2)cc1,13,-3,0,i,20,/,0,0,
Cc1cccc(Nc2ncnc3ccc(Br)cc23)c1,32,/,-4,i,-11,35,-9,-11,
O=C(CSCc1ccc(Cl)cc1Cl)Nc1ccc(O)cc1C(=O)O,-12,-33,0,i,1,-72,-4,1,
Cc1cccc(CN(CC(=O)N/N=C/c2ccco2)S(=O)(=O)c2ccc(Cl)cc2)c1,-9,-5,5,i,9,/,-5,-1,
CC1(C)CC(=O)N(c2ccc(C#N)cc2)C(=O)C1,-14,2,-14,i,0,-2,-4,6,
COc1ccc2cc(CN(CC3CCCO3)C(=O)Nc3ccccc3)c(=O)[nH]c2c1 (configuration not stated),7,/,-4,i,3,27,1,1,
COCC(=O)Nc1ccc2c(c1)OCC(=O)N2Cc1ccccc1F,-11,-13,-5,i,0,1,-1,2,
CC1(C)C=C(c2ccc(C(=O)O)s2)CC(C)(C)N1,-3,-12,-6,i,-4,/,1,6,
C=CCn1c(SCC(=O)N2CC(=O)Nc3ccccc32)nc2scc(-c3cccs3)c2c1=O,-3,-4,-11,i,-1,-157,-4,-6,
O=C(O)CN1C(=O)C(=O)N(Cc2ccc(Cl)c(Cl)c2)C1=O,-10,-6,-9,i,-2,-5,1,0,
CCOC(=O)C1=C(C)Nc2ncnn2C1c1cccnc1 (configuration not stated),-11,-21,-6,i,-5,28,0,6,
COc1ccc(CCNC(=O)c2sc3cc(C)ccc3c2Cl)cc1,13,-14,-18,i,-15,/,3,2,
Cc1cc(-c2nc3c4c5c(sc4[nH]c(=O)n3n2)CCC5)c(C)o1,16,-22,98,i,-15,/,-4,6,eIF4H inh retest=4;PABP polyA inh retest=3
C/C(=N\NC(N)=O)c1cccc(Cl)c1,-1,/,9,i,1,/,-2,0,
Cc1ccc([N+](=O)[O-])cc1NC(=S)NC(=O)CC(C)(C)C,-3,-1,4,i,0,33,-12,-13,
O=S(=O)(c1cc(Cl)ccc1Cl)N1CCN2CCCC2C1 (configuration not stated),6,-3,3,i,1,23,-3,0,
O=c1[nH]c2ccccc2nc1NCCN1CCOCC1,1,-13,0,i,2,/,1,7,
CNc1cncc(-c2cccc(O)c2)n1,/,-14,/,/,/,-22,-3,-1,
Cc1cccc(Nc2nc(N)nc(CCl)n2)c1C,-2,-11,-1,i,10,23,-1,-18,
O=C(CN1CCN(Cc2ccc3c(c2)OCO3)CC1)Nc1cc(S(=O)(=O)N2CCCC2)ccc1Cl,24,/,-2,i,-7,-30,-1,-16,
O=C1/C(=C/c2cccs2)SC(=S)N1CC(=O)N1CCCCC1CCO (configuration not stated),0,-15,/,i,/,1,2,1,
CSc1sc(-c2ccnc(=S)[nH]2)c(-c2ccccc2)c1C#N,-16,2,-7,i,17,2,-1,0,
COCCN1C(=O)c2cc(C(=O)Nc3cccc(F)c3)ccc2C1Nc1cccc(F)c1 (configuration not stated),9,-8,6,i,9,8,-3,-2,
O=C(Cn1cc([N+](=O)[O-])cn1)N1CCc2ccccc2C1,0,/,-10,i,-8,1,-3,-1,
COc1cccc(S(=O)(=O)N(C)C[C@H]2Oc3ncc(Br)cc3C(=O)N([C@@H](C)CO)C[C@@H]2C)c1,/,-10&-4,/,/,/,5,3,4,
C[C@H]1CN([C@@H](C)CO)C(=O)CCCn2nncc2CO[C@@H]1CN(C)C(=O)Nc1cccc2ccccc12,/,-14&2,/,/,/,29,13,1,
Cc1cnc(NC(=O)Cc2ccccc2Cl)s1,-8,-12,3,i,1,23,-6,-6,
COc1ccc([C@@H]2[C@@H]3C(=O)N(C(C)(C)C)C(=O)[C@@H]3[C@]3(CC(C)C)C(=O)N(c4ccccc4)C(=O)N23)cc1,-5,-4,6,i,-11,81*,0,-2,
CC1Cc2cc(/C(O)=C3/C(=O)C(=O)N(CCCn4ccnc4)C3c3ccc([N+](=O)[O-])cc3)ccc2O1 (configuration not stated),/,-15,/,/,/,-4,2,5,
O=C(Nc1ccc(C2CCCCC2)cc1)C1CCN(c2ncccn2)CC1,-15,-4,-1,i,-4,-40,-1,1,
CCN(CC)CCn1c(=N)n(CC(=O)c2ccc(Br)s2)c2ccccc21,/,-22,-4,i,8,16,5,-2,
CN(C)C(=O)Cn1cnc2c(cnn2-c2ccc(F)cc2)c1=O,-6,-6,-2,i,-1,11,-4,-2,
O=C(O)CSc1ncnc2sc3c(c12)CCC3,-20,-4,60*,i,10*,36,-9,-9,eIF4H inh retest=55*;PABP polyA inh retest=54*
O=Cc1c(-c2ccc(F)cc2)nc2ccccn12,1,3,2,i,12,-32,-3,-5,
